# Screening data: PubChem BioAssay, Broad Institute
# A1 apoptosis 2: A1 inhibition read as caspase activation; MEF A1-2A-BIM cells, caspase-Glo luminescence, 3 h; percent of clofoctol response, DMSO zero; caspase activation, % (no concentration beside the values); 24,000 tested, under 10 active; AID 2465; in the data active = caspase activation above about 5.9%;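 also: wells of about 30 µL received 50 nL stock; the first replicate is given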
#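 system = A1-2A-BIM-expressing MEF cells | quantity = 2500 MEF cells/well | dosing = 50 nL compound per well, pinned | schedule = overnight cell settling, then 3 h compound exposure, 37 °C | signal = luminescence from DEVD-luciferin Caspase-Glo reagent, 1:1 in 50 mM HEPES, 1 h RT | read-out = Caspase-3/7 activation, seen as rise in luminescence signal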
# The depositor's hits bear a star. The list is partial; count on the stated rates, not on these rows.
# Start of the data: the first six entries, to show the layout:
SMILES,A1 apoptosis 2
C[C@H](CO)N1C[C@H](C)[C@@H](CN(C)C(=O)Cc2ccccc2)OCCCC[C@H](C)Oc2ccc(NS(C)(=O)=O)cc2C1=O,1.6
COCCOC(=O)N1C(=O)[C@@]2(c3ccccc31)[C@H](c1ccc(OCCO)cc1)N1[C@H](c3ccccc3)[C@H](c3ccccc3)OC(=O)[C@H]1[C@@H]2C(=O)NC[C@H](O)c1ccccc1,0.9
C[C@@H]1CN([C@H](C)CO)C(=O)Cc2cc(NS(=O)(=O)c3cccs3)ccc2O[C@@H]1CN(C)S(=O)(=O)c1ccccc1,0.5
CNC[C@@H]1Oc2c(NS(=O)(=O)c3c(C)noc3C)cccc2C(=O)N([C@H](C)CO)C[C@H]1C,-0.9
Cc1noc(C)c1NC(=O)N(C)C[C@@H]1Oc2c(NC(=O)c3ccc(-c4nccs4)cc3)cccc2C(=O)N([C@H](C)CO)C[C@H]1C,0.5
COc1ccc(S(=O)(=O)N(C)C[C@@H]2Oc3ccc(NS(=O)(=O)c4ccc(C)cc4)cc3C(=O)N([C@H](C)CO)C[C@@H]2C)cc1,0.2

# Main list, previewed entries included:
SMILES,A1 apoptosis 2
C[C@H](CO)N1C[C@H](C)[C@@H](CN(C)C(=O)Cc2ccccc2)OCCCC[C@H](C)Oc2ccc(NS(C)(=O)=O)cc2C1=O,1.6
COCCOC(=O)N1C(=O)[C@@]2(c3ccccc31)[C@H](c1ccc(OCCO)cc1)N1[C@H](c3ccccc3)[C@H](c3ccccc3)OC(=O)[C@H]1[C@@H]2C(=O)NC[C@H](O)c1ccccc1,0.9
C[C@@H]1CN([C@H](C)CO)C(=O)Cc2cc(NS(=O)(=O)c3cccs3)ccc2O[C@@H]1CN(C)S(=O)(=O)c1ccccc1,0.5
CNC[C@@H]1Oc2c(NS(=O)(=O)c3c(C)noc3C)cccc2C(=O)N([C@H](C)CO)C[C@H]1C,-0.9
Cc1noc(C)c1NC(=O)N(C)C[C@@H]1Oc2c(NC(=O)c3ccc(-c4nccs4)cc3)cccc2C(=O)N([C@H](C)CO)C[C@H]1C,0.5
COc1ccc(S(=O)(=O)N(C)C[C@@H]2Oc3ccc(NS(=O)(=O)c4ccc(C)cc4)cc3C(=O)N([C@H](C)CO)C[C@@H]2C)cc1,0.2
Cc1noc(C)c1S(=O)(=O)N(C)C[C@@H]1OCCCC[C@@H](C)Oc2ccc(NC(=O)NC3CCCCC3)cc2C(=O)N([C@H](C)CO)C[C@@H]1C,-0.1
C[C@H]1CN([C@@H](C)CO)C(=O)c2cccc(NC(=O)Nc3cccc4ccccc34)c2O[C@H]1CN(C)Cc1ccc(Cl)c(Cl)c1,0.2
C[C@@H]1CCCCO[C@@H](CN(C)Cc2ccncc2)[C@@H](C)CN([C@H](C)CO)C(=O)c2cc(NC(=O)Nc3cccc4ccccc34)ccc2O1,-0.3
C[C@@H]1CCCCO[C@@H](CN(C)C(=O)Nc2cccc3ccccc23)[C@H](C)CN([C@H](C)CO)C(=O)c2cc(NC(=O)Nc3ccc(F)cc3)ccc2O1,-0.9
Cc1noc(C)c1NC(=O)Nc1ccc2c(c1)C(=O)N([C@H](C)CO)C[C@H](C)[C@H](CN(C)Cc1ccncc1)OCCCC[C@@H](C)O2,-0.1
C[C@@H]1CN([C@@H](C)CO)C(=O)Cc2cc(NC(=O)Nc3ccc(F)cc3)ccc2O[C@@H]1CN(C)S(=O)(=O)c1ccc(Cl)cc1,1.2
CC(C)NC(=O)N(C)C[C@@H]1OCCCC[C@H](C)Oc2ccc(NC(=O)C3CCCCC3)cc2C(=O)N([C@H](C)CO)C[C@@H]1C,1.3
COc1ccc(CN(C)C[C@H]2OCCCC[C@H](C)Oc3ccc(NC(=O)Nc4ccc(OC)cc4)cc3C(=O)N([C@@H](C)CO)C[C@@H]2C)cc1,0.4
C[C@H]1CN([C@@H](C)CO)C(=O)Cc2cc(NC(=O)Nc3cccc4ccccc34)ccc2O[C@@H]1CN(C)C(=O)NC1CCCCC1,0.4
C[C@@H]1CN([C@H](C)CO)C(=O)CCCn2nncc2CO[C@@H]1CN(C)Cc1ccccc1,0.6
C[C@H](CO)N1C[C@H](C)[C@H](CN(C)C(=O)Nc2ccc3c(c2)OCO3)Oc2ccc(N(C)C)cc2CC1=O,-0.6
C[C@@H]1CCCCO[C@@H](CN(C)C(=O)Cc2ccccc2)[C@H](C)CN([C@H](C)CO)C(=O)c2cc(NS(=O)(=O)c3ccccc3)ccc2O1,-0.9
Cc1ccc(S(=O)(=O)N(C)C[C@@H]2Oc3ccc(NC(=O)CCCCCC(=O)Nc4ccccc4N)cc3CC(=O)N([C@@H](C)CO)C[C@@H]2C)cc1,0.4
C[C@H](CO)N1C[C@H](C)[C@@H](CN(C)Cc2ccc(C(=O)Nc3ccccc3N)cc2)Oc2ccc(NC(=O)Cc3ccccc3)cc2CC1=O,0.9
C[C@@H]1CN([C@@H](C)CO)C(=O)c2cc(NS(=O)(=O)c3cn(C)cn3)ccc2O[C@H]1CN(C)Cc1ccccc1,-0.2
CC(C)NC(=O)Nc1ccc2c(c1)CC(=O)N([C@@H](C)CO)C[C@H](C)[C@H](CN(C)S(=O)(=O)c1ccc(F)cc1)O2,1.7
O=C(N/N=C/c1cc(I)cc(I)c1O)c1ccccc1O,-2.6
Cc1noc(C)c1S(=O)(=O)Nc1ccc2c(c1)CC(=O)N([C@H](C)CO)C[C@@H](C)[C@H](CN(C)Cc1ccncc1)O2,-0.7
C[C@H]1CN([C@@H](C)CO)C(=O)c2cccc(NS(=O)(=O)c3ccc(F)cc3)c2O[C@H]1CN(C)C(=O)NC1CCCCC1,-0.1
C[C@@H]1CN([C@H](C)CO)C(=O)Cc2cc(NS(=O)(=O)c3ccc(F)cc3)ccc2O[C@H]1CN(C)S(=O)(=O)c1cccs1,-1.1
COc1ccc(S(=O)(=O)N(C)C[C@H]2OCCCC[C@@H](C)Oc3ccc(NC(=O)C4CCCCC4)cc3C(=O)N([C@H](C)CO)C[C@H]2C)cc1,1.7
Cc1ccc(S(=O)(=O)Nc2ccc3c(c2)C(=O)N([C@@H](C)CO)C[C@@H](C)[C@@H](CN(C)CC2CC2)O3)cc1,-0.2
C[C@@H]1CN([C@H](C)CO)C(=O)Cc2cc(NC(=O)NC3CCCCC3)ccc2O[C@H]1CN(C)Cc1ccc(C(=O)Nc2ccccc2N)cc1,-0.5
C[C@H](CO)N1C[C@H](C)[C@@H](CN(C)Cc2ccccc2)Oc2c(NC(=O)Nc3ccc(C(F)(F)F)cc3)cccc2C1=O,0.8
C[C@@H]1CN([C@@H](C)CO)C(=O)Cc2cc(NS(=O)(=O)c3cccs3)ccc2O[C@H]1CN(C)C(=O)Nc1ccc(C(F)(F)F)cc1,-0.2
COc1ccc(S(=O)(=O)Nc2cccc3c2O[C@H](CN(C)C(=O)Nc2cccc4ccccc24)[C@@H](C)CN([C@@H](C)CO)C3=O)cc1,-0.2
Cc1noc(C)c1S(=O)(=O)Nc1cccc2c1O[C@H](CN(C)S(C)(=O)=O)[C@H](C)CN([C@@H](C)CO)C2=O,0.5
COc1ccc(CN(C)C[C@@H]2OCCCC[C@H](C)Oc3ccc(NC(=O)Nc4cccc5ccccc45)cc3C(=O)N([C@H](C)CO)C[C@@H]2C)cc1,-0.5
C[C@@H]1CN([C@H](C)CO)C(=O)c2cccc(NC(=O)c3cnccn3)c2O[C@@H]1CN(C)C(=O)Nc1cccc2ccccc12,0.3
O=C(N/N=C/c1cc(Br)ccc1O)c1ccccn1,-5.8
C[C@H]1CN([C@@H](C)CO)C(=O)CCCn2cc(nn2)CO[C@H]1CN(C)C(=O)Nc1cccc(C(F)(F)F)c1,-0.3
C[C@H](CO)N1C[C@H](C)[C@H](CN(C)CC2CC2)Oc2ccc(NC(=O)Cc3cn(C)c4ccccc34)cc2CC1=O,-0.2
C[C@H](CO)N1C[C@H](C)[C@@H](CN(C)S(=O)(=O)c2ccccc2)Oc2c(NC(=O)c3ccncc3)cccc2C1=O,-0.6
C[C@H](CO)N1C[C@H](C)[C@H](CN(C)S(=O)(=O)c2cccs2)Oc2ccc(NC(=O)Nc3ccc(C(F)(F)F)cc3)cc2CC1=O,-0.7
C[C@@H]1CCCCO[C@@H](CN(C)S(C)(=O)=O)[C@H](C)CN([C@@H](C)CO)C(=O)c2cc(NS(C)(=O)=O)ccc2O1,-0.6
C[C@@H]1CCCCO[C@H](CN(C)C(=O)Cc2ccccc2)[C@H](C)CN([C@H](C)CO)C(=O)c2cc(NS(=O)(=O)c3ccc(Cl)cc3)ccc2O1,-1.0
COc1cc2c(cc1O)C(c1cccs1)N(Cc1cccc(OC(F)(F)F)c1)CC2 (stereo not drawn),-0.2
C[C@@H]1CN([C@@H](C)CO)C(=O)Cc2cc(NS(=O)(=O)c3ccccc3)ccc2O[C@@H]1CN(C)C(=O)Nc1ccccc1,-0.4
C[C@H]1CN([C@@H](C)CO)C(=O)c2cc(NC(=O)Nc3ccc4c(c3)OCO4)ccc2O[C@H]1CN(C)S(=O)(=O)c1ccc(F)cc1,0.5
C[C@H](CO)N1C[C@H](C)[C@@H](CN(C)CC2CC2)Oc2ccc(NS(=O)(=O)c3cn(C)cn3)cc2CC1=O,1.5
COc1ccc(NC(=O)Nc2ccc3c(c2)CC(=O)N([C@@H](C)CO)C[C@@H](C)[C@H](CN(C)S(=O)(=O)c2ccc(C)cc2)O3)cc1,-0.3
C[C@@H]1CN([C@H](C)CO)C(=O)c2cccc(NS(=O)(=O)c3ccccc3)c2O[C@H]1CN(C)S(=O)(=O)c1ccccc1,0.9
COc1ccc(NC(=O)N(C)C[C@@H]2Oc3c(cccc3N(C)C)C(=O)N([C@@H](C)CO)C[C@@H]2C)cc1,-0.5
COc1ccc(CN(C)C[C@H]2Oc3ccc(NC(=O)C4CC4)cc3CC(=O)N([C@H](C)CO)C[C@@H]2C)cc1,0.7
C[C@@H]1CN([C@@H](C)CO)C(=O)c2cccc(N(C)C)c2O[C@H]1CN(C)S(=O)(=O)c1ccc(Cl)cc1,-0.1
COc1ccc(NC(=O)Nc2ccc3c(c2)C(=O)N([C@@H](C)CO)C[C@@H](C)[C@H](CN(C)C(=O)Nc2ccc(C(F)(F)F)cc2)O3)cc1,0.4
Cc1noc(C)c1NC(=O)Nc1ccc2c(c1)CC(=O)N([C@H](C)CO)C[C@H](C)[C@H](CN(C)Cc1ccc(C(F)(F)F)cc1)O2,-0.4
C[C@@H]1CCCCO[C@H](CN(C)Cc2ccc3c(c2)OCO3)[C@@H](C)CN([C@H](C)CO)C(=O)c2cc(NC(=O)Nc3ccc(C(F)(F)F)cc3)ccc2O1,-0.1
C[C@@H]1CN([C@@H](C)CO)C(=O)c2cc(NC(=O)Nc3ccc(F)cc3)ccc2O[C@@H](C)CCCCO[C@@H]1CN(C)C(=O)NC1CCCCC1,0.5
C[C@H](CO)N1C[C@H](C)[C@H](CN(C)C(=O)NC2CCCCC2)Oc2ccc(NS(=O)(=O)c3cccs3)cc2CC1=O,0.3
Cc1ccc(S(=O)(=O)N(C)C[C@@H]2Oc3ccc(NC(=O)CCCN(C)C)cc3CC(=O)N([C@@H](C)CO)C[C@H]2C)cc1,-0.4
Cc1noc(C)c1S(=O)(=O)Nc1ccc2c(c1)C(=O)N([C@@H](C)CO)C[C@@H](C)[C@H](CN(C)C(=O)Cc1ccccc1)OCCCC[C@@H](C)O2,1.1
COc1ccc(NC(=O)Nc2ccc3c(c2)CC(=O)N([C@@H](C)CO)C[C@@H](C)[C@@H](CN(C)C(=O)NC(C)C)O3)cc1,0.5
CC(C)NC(=O)N(C)C[C@H]1Oc2ccc(NC(=O)CCCN(C)C)cc2CC(=O)N([C@@H](C)CO)C[C@@H]1C,0.2

# Further records follow:
SMILES,A1 apoptosis 2
COc1ccc(CN(C)C[C@H]2Oc3ccc(NS(=O)(=O)c4ccccc4)cc3CC(=O)N([C@H](C)CO)C[C@H]2C)cc1,2.2
COc1ccc(S(=O)(=O)N(C)C[C@@H]2Oc3ccc(NS(=O)(=O)c4cccs4)cc3C(=O)N([C@@H](C)CO)C[C@H]2C)cc1,0.7
C[C@H]1CCCCO[C@H](CN(C)Cc2ccccc2)[C@@H](C)CN([C@@H](C)CO)C(=O)c2cc(NS(=O)(=O)c3ccc(F)cc3)ccc2O1,-0.4
Cc1noc(C)c1NC(=O)N(C)C[C@H]1OCCCC[C@H](C)Oc2ccc(NC(=O)NC(C)C)cc2C(=O)N([C@H](C)CO)C[C@@H]1C,0.2
C[C@@H]1CN([C@@H](C)CO)C(=O)Cc2cc(NS(C)(=O)=O)ccc2O[C@@H]1CN(C)S(=O)(=O)c1ccc(Cl)cc1,0.6
COC(=O)CCCCCCC(=O)N/N=C/c1ccc(-c2cccc(Cl)c2)o1,-2.7
O=C(Nc1ccccc1)C1=C[C@@H](C2CCCCC2)C[C@@H](OCc2ccc(CO)cc2)O1,-0.2
Cc1noc(C)c1NC(=O)N(C)C[C@H]1OCCCC[C@@H](C)Oc2ccc(NC(=O)CCC(F)(F)F)cc2C(=O)N([C@@H](C)CO)C[C@@H]1C,-0.6
C[C@H](CO)N1C[C@H](C)[C@@H](CN(C)Cc2ccc3c(c2)OCO3)Oc2c(NC(=O)CCCCCC(=O)Nc3ccccc3N)cccc2C1=O,-0.2
C[C@@H]1CN([C@@H](C)CO)C(=O)c2cccc(NS(=O)(=O)c3ccccc3)c2O[C@H]1CN(C)C,-0.3
C[C@@H]1CCCCO[C@H](CN(C)C(=O)Cc2ccccc2)[C@@H](C)CN([C@@H](C)CO)C(=O)c2cc(NC(=O)Nc3ccc(F)cc3)ccc2O1,-0.2

# An excerpt of these results, as labelled records.
> COc1ccc(CN(C)C[C@H]2Oc3ccc(NS(=O)(=O)c4ccccc4)cc3CC(=O)N([C@H](C)CO)C[C@H]2C)cc1
  A1 apoptosis 2: 2.2
> COc1ccc(S(=O)(=O)N(C)C[C@@H]2Oc3ccc(NS(=O)(=O)c4cccs4)cc3C(=O)N([C@@H](C)CO)C[C@H]2C)cc1
  A1 apoptosis 2: 0.7
> C[C@H]1CCCCO[C@H](CN(C)Cc2ccccc2)[C@@H](C)CN([C@@H](C)CO)C(=O)c2cc(NS(=O)(=O)c3ccc(F)cc3)ccc2O1
  A1 apoptosis 2: -0.4
